NPYLR7 agonist = mosquito NPYLR7 agonism; HEK293T NPYLR7/Galpha15, GCaMP6s calcium fluorescence; AID 1259423; activation, % at 10 µM; 270,000 compounds, 0.15% hits; in the data active = activation above about 40%;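 also: 0% = vehicle and 100% = reference agonist at the receptor; some compounds past the cut are filed as inactive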
NPYLR7 agonist max-min = second read-out of NPYLR7 agonist, no call of its own (marks repeat the call); activation, %; measured here: Max-Min RFU normalised activation; some inactives read as strong as hits;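 span of the calcium signal over five minutes; 0% = vehicle and 100% = native peptide agonist; compound fluorescence can raise it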
* = called active by the depositor.

Molecule,NPYLR7 agonist,NPYLR7 agonist max-min
Cc1ccc(F)cc1NCC(=O)Nc1ccccc1Cl,6,3
COc1cc2c(cc1OC)C(C(C)NC(=O)Cc1ccccc1)N(Cc1ccc(F)cc1)CC2 (centres undefined),-3,-2
COC(=O)[C@@H]1C[C@@H](NC(=O)c2cc(C(C)C)[nH]n2)CN1C,1,1
CCc1nnc2c3cnn(-c4ccccc4)c3nc(C)n12,5,0
CCOC(=O)c1c(NC(=O)CSc2ncnc3sccc23)sc2c1CCCCC2,-8,-14
COc1ccccc1-c1onc(C)c1C(=O)NCc1cccs1,2,3
Cc1n[nH]c(C)c1CN(C)Cc1cn(C)nc1-c1ccc(C2CCCCC2)cc1,2,3
COc1cc(C=CC(=O)NCCn2c([N+](=O)[O-])cnc2C)ccc1OCc1ccccc1,-7,-13
Cc1ccccc1C(c1ncccc1C)N(C)C(=O)C1CCN(CCc2ccc(Br)cc2)CC1 (centres undefined),7,4
CC(=O)N1CCC(N(C)Cc2snnc2C)CC1,5,4

The closing two compounds of the part above are carried over, then new ones follow.
Molecule,NPYLR7 agonist,NPYLR7 agonist max-min
Cc1ccccc1C(c1ncccc1C)N(C)C(=O)C1CCN(CCc2ccc(Br)cc2)CC1 (centres undefined),7,4
CC(=O)N1CCC(N(C)Cc2snnc2C)CC1,5,4
CC(=O)Nc1cccc(C(=O)NCc2cccnc2Oc2ccccc2)c1,16,7
N#Cc1ccc(C2Oc3ccccc3C3CC(c4ccc5c(c4)OCCO5)=NN32)cc1 (centres undefined),9,6
CC(C)c1cc(Oc2ccccc2Cl)nc(SCc2ccc(C(F)(F)F)cc2)n1,17,9
CCOc1ccc(NC(=O)CSc2ccc3nnc(-c4ccc(C)cc4)n3n2)cc1,17,23
O=[N+]([O-])c1ccc(-c2noc(C3CCCCC3)n2)cc1,-6,-13
CC1(C)C2([N+](=O)[O-])CN3CC1([N+](=O)[O-])CN(C2)C3c1ccc(Cl)cc1 (centres undefined),3,1
FC(F)(F)c1nc(Nc2ccc3[nH]ncc3c2)c2ccccc2n1,15,17
CCCOc1ccccc1C1NC(=O)NC(C)=C1C(=O)OC1CCCCCC1 (centres undefined),-5,-9
C=CCN(Cc1ccc(C)s1)C(=O)CCNS(C)(=O)=O,5,3
Cc1ccc2[nH]c(CNC(C)c3ccc4c(c3)OCCCO4)nc2c1C (centres undefined),21,16

An excerpt of these results, with each value named.
> COc1ccccc1-c1onc(C)c1C(=O)NCc1cccs1
- NPYLR7 agonist = 2
- NPYLR7 agonist max-min = 3

> C=CCN(Cc1ccc(C)s1)C(=O)CCNS(C)(=O)=O
- NPYLR7 agonist = 5
- NPYLR7 agonist max-min = 3

> FC(F)(F)c1nc(Nc2ccc3[nH]ncc3c2)c2ccccc2n1
- NPYLR7 agonist = 15
- NPYLR7 agonist max-min = 17

> N#Cc1ccc(C2Oc3ccccc3C3CC(c4ccc5c(c4)OCCO5)=NN32)cc1 (centres undefined)
- NPYLR7 agonist = 9
- NPYLR7 agonist max-min = 6

(next part)
Molecule,NPYLR7 agonist,NPYLR7 agonist max-min
Nc1nc(Cl)cc(N2CC3CC4CC(C3)CC2C4)n1,2,-1
CC(=O)N1CCC(C(=O)NC(CC(C)C)c2ncnn2C)CC1 (centres undefined),-1,-2
Cc1nn(C)c2ncc(S(=O)(=O)N3CCCC3c3ccc[nH]3)cc12 (centres undefined),-7,-7
C(=C\c1ccccc1)/CN1CCC(n2cc(C3CCCC3)nn2)CC1,-3,-4
COCCn1c(C)cn2c3c(=O)n(Cc4ccc(Br)cc4)c(=O)n(C)c3nc12,15,7
O=C(NC1CCN(c2ccccc2C(=O)N2CCCC2)CC1)c1cccc(Cl)c1,-3,0
NC(=O)C1CCN(C(=O)CCc2ccc(F)c(F)c2)CC1,0,0
Cc1cc2ccccc2n1CCNC(=O)c1cc2n(n1)CCCN(C)C2,-4,-13
CCOC(=O)N1CCN(c2nc(-c3ccc(C)cc3)nc3ccccc23)CC1,0,-4
CCOc1ccc(C2=NOC(C)C(=O)N2Cc2cc(OC)cc(OC)c2)cc1 (centres undefined),8,5
COc1cc(NC(=O)CN(C)C(C)c2nccs2)ccc1Cl (centres undefined),0,-1
CC(C)CC(NP(=O)(O)O[C@@H]1O[C@@H](C)[C@H](O)[C@@H](O)[C@H]1O)C(=O)NC(Cc1c[nH]c2ccccc12)C(=O)O (some centres undefined),3,-10
COc1ccc(CC(=O)NCCOc2ccc(-c3ccccc3)nn2)cc1,3,0
Cc1cc(NS(=O)(=O)c2ccc(N=CC(C#N)c3nc(-c4ccccc4)cs3)cc2)no1 (centres undefined),11,7
O=c1c2ccccc2nc2sc3ccccc3n12,-3,-4
CN(C(=O)CSc1nnc(C2CC2)n1C1CC1)C1(C#N)CCCCC1,3,4
O=C(CSc1nc2c(cnn2CCO)c(=O)[nH]1)Nc1ccc(C(F)(F)F)cc1,4,4
CC(C)CCn1nc(C(=O)N2CCOCC2)c2c1CCN(C(=O)c1cc(-c3ccsc3)n[nH]1)C2,9,-6
Cc1cccc2c1C(=O)NC1(CCN(C(=O)CCc3ccccc3)CC1)N2,2,6
COc1ccc(Cn2c(=O)n(C(C)C)c(=O)c3oc4ccccc4c32)cc1,8,10
c1ccc(-c2nnc3n2CCN(Cc2cc4n(n2)CCNC4)CC3)cc1,6,2
CCn1c(O)c(N=NC(=O)c2ccccc2)c2ccccc21,0,7
COCCN(CC(=O)N(Cc1ccc2c(c1)OCO2)Cc1ccco1)C(=O)Nc1ccc(OC)cc1OC,-6,-3
COc1ccc(-c2[nH]nc3c2C(c2ccoc2)C(C#N)C(=N)O3)cc1 (centres undefined),-4,-8
Cc1nc(C2CN(C(C)C(=O)Nc3ncc(C)s3)CCO2)n[nH]1 (centres undefined),-6,-8
O=C(NCC1CCC1)c1ccc(CN2CCSCC2)cc1,-10,-15
CCCC(C)NS(=O)(=O)c1cc(C(=O)O)ccc1OC (centres undefined),5,3
CCCCN1CCN(c2nc3c(c(=O)[nH]c(=O)n3C)n2Cc2ccc(Cl)cc2)CC1,5,4
O=C(Cc1ccc(NS(=O)(=O)c2cc(F)ccc2F)cc1)N1CCOCC1,-6,-8
O=C(O)C1CCCN1c1nc(Cc2ccc(Cl)cc2)ns1 (centres undefined),0,13
CCOC(=O)c1cc(-c2ccc(Cl)cc2)n(-c2ccc(C(=O)NCc3ccncc3)cc2)n1,4,1
O=C(CCc1cscn1)N1CCN(c2cc(Cl)ncn2)CC1,1,24
Cc1cc(C)n(CC(O)Cn2c(C)c(C)c3cccc(Cl)c32)n1 (centres undefined),5,11
CN(Cc1cccc(C#N)c1)C(=O)c1cccnc1Nc1cccc(F)c1,-12,-16
Cc1cnc(CNC(=O)CC2C(=O)NCCN2Cc2cccc(F)c2F)cn1 (centres undefined),19,10
COC(=O)C(C)C(N)c1ccccc1 (centres undefined),-6,-7
Cc1ccsc1CNc1ccccc1C(=O)N1CCN2CCCC2C1 (centres undefined),8,0
CCCCN(CC(=O)Nc1cc(-c2ccccc2)nn1-c1ccccc1Cl)C(=O)C(CC)c1ccccc1 (centres undefined),2,-2
CC1CCC(NC(=O)OC(C)(C)C)(C(=O)N2CC(C)OC(C)(C)C2)CC1 (centres undefined),-2,-3
CC1(C)CC(=O)C=C(C(=O)N2CCc3c([nH]c4ccccc34)C2c2ccccc2F)O1 (centres undefined),8,5
O=C(NCc1ccnc(-n2cccn2)c1)C1CCCC1,0,-1
C=CCNS(=O)(=O)c1ccc(OC)cc1,-1,-5
Cc1cc(C(=O)N2C[C@H](N)C[C@H]2C(=O)NC(C)C)sc1-c1ccccc1,-4,2
COCc1cc(N2CCN(c3ccccc3Cl)CC2)nc(SCc2ccc(C(=O)NCC3CCCO3)o2)n1 (centres undefined),-5,-1
C[C@H](NS(=O)(=O)c1ccccc1F)C(=O)N1CCN(C)C(=O)C1,1,8
O=C(c1c(F)cccc1F)N1CCC(Cc2ccc(C(F)(F)F)cc2)CC1,5,1
CC(C)(C)c1ccc(NC(=O)N2CCn3cccc3C2c2ccncc2)cc1 (centres undefined),12,6
C[C@H](C(=O)NCCOc1ccccc1)N1Cc2ccc(-c3ccnn3C)nc2C1=O,-6,-4
Cn1cnnc1SCC(=O)Nc1cccc2ccccc12,0,-5
Cc1ncc(CN2CCc3c([nH]c4ccccc34)C2c2ccccc2F)s1 (centres undefined),5,4

(listing goes on)
Molecule,NPYLR7 agonist,NPYLR7 agonist max-min
O=C(Nc1ccc(N2CCCCC2)c(C(=O)NCc2ccccc2)c1)Nc1ccccc1F,-12,-7
Cc1ccccc1CNc1ccc(C#N)cn1,1,-1
O=C(NC1CC1)c1ccc(Oc2ccc(Br)cc2)nc1,2,1
CC(C)c1nc(CC(=O)N2CCCc3cc(F)c(F)cc32)cs1,5,5
Cc1cncc(C(=O)N2CCC3(CCNC(=O)CC3)CC2)c1,30,23
Cc1nn(-c2ccccc2)c(Oc2ccccc2Cl)c1CN(CC(O)COCc1ccccc1)CC1CC1 (centres undefined),-3,3
COc1ccc(-c2nc(N(CCCN3CCOCC3)CCC(=O)NCc3ccccc3)c3ccccc3n2)cc1,23,16
CC1=CC=CN2C1=NC(C(F)(F)F)(C(F)(F)F)N=C2c1ccccc1,7,3
CCN1CCCC1CNC(=O)CCC1CCN(Cc2nc3ccccc3n2C)CC1 (centres undefined),5,3
CCCCn1cnc2c1c(=O)n(Cc1cc(=O)n3ccsc3n1)c(=O)n2CC(C)C,0,3

Full records, looked up by structure. Order of values: NPYLR7 agonist	NPYLR7 agonist max-min
Results for `CCN1CCCC1CNC(=O)CCC1CCN(Cc2nc3ccccc3n2C)CC1` (centres undefined) → 5	3
Results for `CC(C)c1nc(CC(=O)N2CCCc3cc(F)c(F)cc32)cs1` → 5	5
Results for `Cc1ccccc1CNc1ccc(C#N)cn1` → 1	-1

The list continues.
Molecule,NPYLR7 agonist,NPYLR7 agonist max-min
COc1ccccc1-c1ccc2c(c1)C(C)(Cc1ccccc1C#N)C(=O)N2 (centres undefined),1,0
Nc1nc2ccc(Cc3nc4ccccc4o3)cc2s1,5,4
Cc1ccccc1NC(=O)Cn1nc(C2CC2)c2cnn(-c3ccccc3C)c2c1=O,5,3
Fc1ccc(F)c(CN2CCCC(c3ccnc(SCCN4CCCC4)n3)C2)c1F (centres undefined),20,1
COc1ccc(C(=O)N2CCC(Oc3c(C)cccc3C)CC2)c(O)c1,3,-1
O=C1CCC(C(=O)N2CC=C(c3ccccc3)CC2)CN1CCN1CCOCC1 (centres undefined),4,4
CCC(=O)Nc1ccc(OCC(=O)N2CCC3(CCN(C)C3)CC2)cc1,-4,-4
COc1cc(C(=O)N2CCOC(COCc3ccccc3F)C2)ccc1F (centres undefined),4,12
Cc1ncccc1OC1(C(=O)NCCc2c[nH]c3ccccc23)CCNCC1,4,4
CN1CCN(C(=O)C[C@@H]2CCNC[C@@H]2Cc2cc(CN(C)Cc3ccccc3)on2)CC1,-8,-14
COCc1cc(N2CCN(Cc3ccccc3)CC2)nc(SCc2ccc(C(=O)NCCN(C)C)cc2)n1,-7,9
CCC(Sc1ncc(S(=O)(=O)c2ccc(C)cc2)c(=O)[nH]1)C(=O)Nc1ccc(C)cc1 (centres undefined),-4,-4
CC1CC(C)CN(C(=O)CSc2ncn(-c3ccccc3)n2)C1 (centres undefined),1,0
CN(CC(=O)NC1CCCc2ccccc21)Cc1ccccc1 (centres undefined),-1,-2
O=S(=O)(c1ccc2c(c1)OCCO2)N1CCN(C(=S)NC2CC3CCC2C3)CC1 (centres undefined),10,9
NC(=O)Cc1ccccc1NC(=O)C1CC1c1cccc2ccccc12 (centres undefined),2,10
Cn1nccc1C1CCCN(CCCc2nc3ccccc3o2)C1 (centres undefined),-10,-8
O=C(Nc1cc(F)ccc1F)c1cnc2ccccn2c1=O,7,9
COc1cc(OC)cc(C(=O)N2CCN(c3nc(C4CC4)nc4sc(C)c(C)c34)CC2)c1,-1,5
O=C(NN=Cc1ccco1)C(O)C(O)C(=O)NN=Cc1ccco1 (centres undefined),3,33
CN(Cc1ccc2c(c1)OCO2)S(=O)(=O)c1cc(C(F)(F)F)cc(C(F)(F)F)c1,1,1
Cc1ccc(Cc2nc(N3CCN(C(=O)c4ccc5c(c4)OCO5)CC3)c3c(-c4cccnc4)noc3n2)cc1,-9,-12
O=C(Nc1ccc(Oc2ccccc2F)cc1)C1CCCCN1C(=O)Cn1cncn1 (centres undefined),6,3
Cc1ccc2[nH]c(=O)cc(C(=O)N(C)Cc3csc(C(C)C)n3)c2c1,-4,0
Cc1cc(C)cc(C(=O)Nc2c(C)nc3cc(C)ccn3c2=O)c1,-3,-4
O=C(NCCn1ncccc1=O)Nc1cccc(Cl)c1,-13,-17
CC(C)COC(=O)N1CCN(c2ccc(C(=O)N3CCCC(C)C3)cn2)CC1 (centres undefined),6,1
O=C(Nc1ccccc1-c1ccccc1)N1CC(c2ccncc2)C1,9,6
O=C(NC1CCN(C(=O)Cc2noc3ccccc23)CC1)C1CC1,1,1
O=S(=O)(c1ccc(F)cc1F)N1CCNCC1,1,-2
Cc1cc(C(=O)N(C)CCCc2cnn(C)c2)n[nH]1,9,6
O=C(c1ccc(Oc2ccccc2)cc1)C1CCCN(C(=O)c2cscn2)C1 (centres undefined),-3,-6
Cc1ccc(C2=NN(C(=O)CN3CCc4ccccc4C3)C(c3ccc(C)cc3)C2)cc1 (centres undefined),-8,1
CCOC(=O)C1CCCN(C(=O)c2coc(CN(Cc3cccc(Oc4ccccc4)c3)C(C)c3ccccc3)n2)C1 (centres undefined),17,32
Cn1ccc(C(=O)OCc2cn(-c3ccc(Cl)cc3)nn2)cc1=O,1,-1

Some of the compounds tested; count on the stated rates, not on these rows.
